Compound activity as filed in PubChem.
VACV mCherry inh: inhibitors of vaccinia virus infection (mCherry reporter signal); Vaccinia virus mCherry reporter infection, fluorescence; about a quarter of the inactives have no number; Potency, µM (doses to about 36.5 µM), without a hit: at the highest dose activity change, negative = inhibition, usual class: inhibitors; 310,000 tested, 0.63% active; active = well fitted inhibition curve with a large enough effect; inconclusive = small, poorly fitted or top-dose-only effect; inactive = no such curve, though single readings can be large or run the other way; tested in A549 cells; further: nearly all actives have a fitted effect of over 35% in size; inactives centre near -10
VACV Venus inh: inhibitors of vaccinia virus (Venus reporter); Vaccinia virus Venus reporter expression, fluorescence; 330,000 tested, 0.46% active; Potency, µM (series often up to 36.5 µM), for inactives: at the highest dose activity change, negative = inhibition, most hits filed as inhibitors; active means well fitted inhibition curve with a large enough effect; inconclusive means small, poorly fitted or top-dose-only effect; inactive means no such curve, though single readings can be large or run the other way; tested in A549 cells; further: nearly all actives have a fitted effect of over 30% in size; inactives centre near -10
An asterisk follows results filed as active; i = inactive; ? = inconclusive; . = no result given; & = joins results of further samples; [ ] = dose if it differs, or a comment. On the % scale 0 is the no-effect control and ±100 the full control effect; potency means the concentration at half of the fitted maximal effect.

Every second line gives: VACV mCherry inh | VACV Venus inh
> O=C(CSc1nnc(C2CC2)n1-c1ccccc1)NCCN1C(=O)CSC1=O
 : -8% | -6%
> CC(C)C[C@@H](CN1CCCC1CN1C(=S)NC[C@@H]1Cc1ccc(O)cc1)N1C[C@H](Cc2ccc(O)cc2)N(CC2CCCCCC2)C1=S (stereo partly drawn)
 : 6.3µM* | 11µM*
> O=C(Nc1nc2ccc(S(=O)(=O)N3CCCC3)cc2s1)c1cccs1
 : . | 2%
> O=C(NCCOc1ccccc1)C1CCC(=O)N(CCCN2CCOCC2)C1 (stereo not drawn)
 : -21% | -14%
> Cc1cc(C)n2nc(CNS(=O)(=O)c3ccc(C)c(C)c3)nc2n1
 : -6% | -8%&-4%
> Cc1ccc(Cc2cnc(NC(=O)/C(C#N)=C/c3ccc(-c4ccc([N+](=O)[O-])cc4)o3)s2)cc1
 : -15% | -6%
> CC(=O)CC(c1ccc2c(c1)OCO2)c1c(O)c2ccccc2oc1=O (stereo not drawn)
 : i | -9%
> C=CCS(=O)(=O)N1CCC(CCOc2ccccc2)(C(=O)OCC)CC1
 : ? | ?
> COC(=O)c1cc2sc(C)cc2n1CC(=O)Nc1cccc(SC)c1
 : -13% | -9%
> OC[C@@H]1CN(Cc2ccc(F)cc2)C[C@H](n2cnc3c(NC4CC4)ncnc32)O1
 : -5% | -15%

Entries of single compounds, looked up by structure. Screens in order: VACV mCherry inh, VACV Venus inh
Shown for OC[C@@H]1CN(Cc2ccc(F)cc2)C[C@H](n2cnc3c(NC4CC4)ncnc32)O1 : -5%, -15%
Shown for CC(C)C[C@@H](CN1CCCC1CN1C(=S)NC[C@@H]1Cc1ccc(O)cc1)N1C[C@H](Cc2ccc(O)cc2)N(CC2CCCCCC2)C1=S (stereo partly drawn) : 6.3µM*, 11µM*
Shown for O=C(NCCOc1ccccc1)C1CCC(=O)N(CCCN2CCOCC2)C1 (stereo not drawn) : -21%, -14%
Shown for O=C(Nc1nc2ccc(S(=O)(=O)N3CCCC3)cc2s1)c1cccs1 : ., 2%
Shown for C=CCS(=O)(=O)N1CCC(CCOc2ccccc2)(C(=O)OCC)CC1 : ?, ?

(next part)
Every second line gives: VACV mCherry inh | VACV Venus inh
> CCOc1ccc(-n2c(=O)c3c4c(sc3n(CC(=O)NCCCOC)c2=O)CCCCC4)cc1
 : -16% | -1%&-10%
> NC(=S)NN=C1CCCCCCCCC1
 : 20µM* | ?
> CC(C)C(NC(=S)NCc1ccccc1)C(=O)O (stereo not drawn)
 : -10% | -11%
> O=C(N/N=C/C1CC=CCC1)c1ccccc1O (stereo not drawn)
 : . | -21%
> CN1CCCC(OC(=O)COc2ccc(Br)cc2)C1 (stereo not drawn)
 : -10%[1.46 µM] | ?
> O=C1C=C(O)C(n2cncn2)C(c2cc(F)ccc2F)C1 (stereo not drawn)
 : 4% | 2%
> O=[N+]([O-])c1ccccc1CSc1ccccn1
 : -19% | -1%
> COC(=O)c1ccc2c(c1)c(C#Cc1ccccc1)c(-c1ccccc1)n2C
 : ? | ?
> CCN1C(=O)[C@@H]2[C@@H](c3ccc(SC4CCCCC4)c(OC)c3)N3CCCC[C@@]3(C(=O)OC)[C@@H]2C1=O
 : -4% | -15%
> NC(=S)N/N=C/c1cccc(/C=N/NC(N)=S)c1
 : -1% | -5%
> CCn1c(=O)c(C(=O)CN(C)CC(=O)Nc2ccccc2Br)c(N)n(Cc2ccccc2)c1=O
 : -2% | -23%
> O=C(N/N=C/C(Br)=C/c1ccccc1)c1n[nH]c2c1CCC2
 : -16% | -17%
> COc1cc(OC)nc(Oc2cc(C=O)ccc2OC)n1
 : -7% | -6%
> CCc1ccc(NC(=O)C(CC)n2c(=O)c(-c3ccccc3NC(C)=O)nc3ccccc32)cc1 (stereo not drawn)
 : -4% | -6%
> O=C(NCc1ccccc1)c1cccc(Nc2nc3ccccc3n3nnnc23)c1
 : ? | ?
> O=C(Cc1n[nH]c(=O)[nH]c1=O)N/N=C/c1ccccc1O
 : -24% | -22%
> Cc1cccc(N2CCN(C(=O)c3cccc(N4C(=O)C5C6C=CC(C6)C5C4=O)c3)CC2C)c1 (stereo not drawn)
 : i | -16%
> CCN(c1ccccc1)S(=O)(=O)c1ccc2[nH]cc(C(=O)N3CCOCC3)c(=O)c2c1
 : . | -3%
> Oc1ccc(CCNCc2cc3c(cc2Br)OCO3)cc1
 : -10% | -9%
> O=C(Cn1nc(-c2ccccc2)ccc1=O)NCc1ccc(F)cc1Cl
 : -13% | -11%
> COCCNC(=O)CSc1nc(-c2ccc(C)cc2)nc2c1c(=O)n(C)c(=O)n2C
 : 6% | 6%
> CCn1cc(/C=C(\NC(=O)c2ccccc2)C(=O)NCCN2CCOCC2)c2ccccc21
 : ? | -8%
> O=C(Cc1c(Cl)cccc1Cl)NC1CC1
 : i | -11%
> O=C(Nn1cnnc1)c1cc(-c2ccccn2)nc2ccccc12
 : . | 0%
> COCCN(C(=O)COC(=O)/C=C/c1ccc(Cl)c(Cl)c1)c1c(N)n(Cc2ccccc2)c(=O)[nH]c1=O
 : -13% | -12%
> Cc1ccc(S(=O)(=O)Nc2cc(Cl)c3oc4c(c3c2)CCCC4)cc1
 : -13% | -7%
> CC(C)(C)c1cc(C(=O)Nc2cccnc2)cc(C(=O)Nc2cccnc2)c1
 : -10% | -27%
> CCOC(=O)N/N=C1\CC(C)S(=O)(=O)c2ccc(Cl)cc21 (stereo not drawn)
 : i | -19%
> O=S(=O)(c1cccs1)N1CCN(c2cccc(Cl)c2)CC1
 : ? | -16%
> CCOC(=O)c1cccc(NC(=O)c2cnc(N3CCCCC3)c3ccccc23)c1
 : -22% | ?
> COc1ccc(-n2c(=O)c3ccc(C(=O)NCc4ccc(C)cc4)cc3n(Cc3ccc(F)cc3Cl)c2=O)cc1
 : 9% | 3%
> Nc1ccn([C@@H]2O[C@H](C(=O)Nc3ccc(C(=O)N4CCCCC4)cc3)[C@@H](O)[C@H]2O)c(=O)n1
 : 15% | -9%
> CN(Cc1c(F)cccc1Cl)C(=O)CCc1c[nH]c2ccccc12
 : ? | -13%
> Cc1nc(CC(=O)c2c(C)cc(O)cc2O)cs1
 : -4% | -13%
> COCCN(C(=O)COC(=O)c1cccnc1SC)c1c(N)n(Cc2ccccc2)c(=O)[nH]c1=O
 : i | -9%
> COC(=O)[C@]12CCCCC=C1N(CCC1=CCCCC1)C(=O)[C@H](CC(=O)N1CCN(C(=O)c3ccco3)CC1)C2
 : 1% | -9%
> COc1cccc(CNC(=O)CSc2cc(C)[nH]c(=O)n2)c1
 : -10% | 2%
> Cc1ccc(S(=O)(=O)N2CCN(C(=O)c3ccc4ccccc4n3)CC2)c(C)c1
 : i | -13%
> O=S(=O)(c1cccc(-c2nnc(SC(F)F)n2-c2ccccc2)c1)N1CCCCC1
 : . | -22%
> C[C@H](CO)N1C[C@H](C)[C@@H](CN(C)S(=O)(=O)c2ccc(F)cc2)Oc2ccc(NS(=O)(=O)c3cccs3)cc2C1=O
 : i | -15%
> CC(C)CCOc1ccc(/C=N/N2C(=O)CSC2=S)cc1
 : -3% | 8%
> O=C(/C=C/c1cccc(OCc2ccccc2)c1)c1cccnc1
 : i | -4%
> O=C(NCc1ccc(Cl)cc1)[C@@H]1CCCN1S(=O)(=O)c1ccc(Cl)cc1
 : -26% | -11%
> Cc1ccccc1N1C(=O)NC(=O)/C(=C/c2ccc(N3CCOCC3)o2)C1=O
 : -19% | 10%
> CCN(CC)CCN(Cc1cc2cc(C)cc(C)c2[nH]c1=O)C(=S)NCc1ccco1
 : -20% | -25%
> COc1ccc(NC(=O)C2Cc3c(-c4cccc(C(C)=O)c4)ccnc3O2)cc1 (stereo not drawn)
 : ? | ?
> CC1CCN(c2ccccc2NC(=O)c2cc3ccccc3o2)CC1
 : i | -11%
> Cc1ccc(C(C)C)c(OCCn2ccnc2C)c1
 : -7% | -14%
> COc1ccccc1OCCn1c(-c2ccc(Br)cc2)nc2ccccc2c1=O
 : -13% | -4%
> Brc1ccc(CNCCCSc2nnnn2-c2ccccc2)cc1
 : -5% | -6%

Further compounds:
Every second line gives: VACV mCherry inh | VACV Venus inh
> CC(C)Oc1ccc(S(=O)(=O)N2CCOCC2)cc1NC(=O)CC1CC2CCC1C2 (stereo not drawn)
 : -16% | -15%
> Cn1c(=O)cc(SCC(=O)N2CCCC2)c2ccccc21
 : i | -10%
> COCCNC(=O)C1CC2Cn3c(nc4cc(C)c(C)cc43)C2N1C (stereo not drawn)
 : -5% | -14%
> Cc1ccc(N(CC(=O)NCCSc2ccccn2)S(=O)(=O)c2ccc(F)cc2)cc1
 : ? | -18%
> COc1cccc(CN2C(=O)N(C(C)C)C(N(O)C(=O)NC(C)C)C2(C)C)c1OC (stereo not drawn)
 : -22% | -11%
> CCCc1cc(=O)[nH]c(SCc2cccnc2)n1
 : i | -11%
> Cc1ccc(S(=O)(=O)N(C(=O)c2ccncc2)c2ccc(OC(=O)c3ccncc3)c3ccccc23)c(C)c1
 : i | 1%
> CC(=O)NC(Cc1ccc(F)cc1)C(=O)NC1CCN(C(=O)Nc2ccccc2C)CC1 (stereo not drawn)
 : -6% | -7%
> O=C(C1CCCO1)N1CCN(C(=S)Nc2ccc(Br)cc2)CC1 (stereo not drawn)
 : -13% | -6%
> CC(C)(CC(=O)O)CC(=O)Nc1ccc2c(c1)ncn2CCc1ccccc1
 : -19% | -14%
> CCn1c(SCC(=O)Nc2oc(-c3ccccc3)c(-c3ccccc3)c2C#N)nnc1-c1ccncc1
 : -13% | -8%
> COc1cc(/C=N/NC(=O)c2ccc(N3CCCC3=O)cc2)ccc1O
 : ? | ?
> CCN(Cc1ccccc1)C(c1ccc(C)cc1)c1nnnn1C(C)(C)C (stereo not drawn)
 : . | -14%
> CN(C(=O)C1CCC1C(=O)O)c1nc(-c2ccc(Cl)s2)cs1 (stereo not drawn)
 : -13%[7.34 µM] | -7%[7.34 µM]
> CC12CN3CC(C)(CN(C1)C3c1cccs1)C2=O (stereo not drawn)
 : 2% | -7%
> Cc1cc(NCCCCO)n2c(nc3ccccc32)c1C#N
 : -7% | -8%
> COc1cccc(-c2cc(NC=O)c3ncc(-c4ccc(OC)c(OC)c4)n3c2)c1
 : ? | ?
> Cc1nnc(SCC(=O)N(C)c2ccccc2)n1Cc1ccccc1
 : i | -7%
> CC(C)CCNC(=O)C(=O)NC1CCCC1
 : i | -19%
> O=c1c2ccccc2n2c(=S)[nH]nc2n1-c1ccccc1
 : i | -8%
> CCOCCCNCc1cccc(OCc2ccc(F)cc2)c1
 : -20% | -1%
> CC1CCN(C(=O)c2ccc(NC(=O)c3nsc4ccccc34)cc2)CC1
 : -21%[7.34 µM] | -4%[7.34 µM]
> O=C(Nc1nccs1)c1sc2ccccc2c1Cl
 : -17%[1.46 µM] | -25%
> Cc1noc(C)c1CSCC(=O)Nc1cc(C(F)(F)F)ccc1N1CCCCC1
 : i | -11%
> N#C/C(=C(/O)CCl)c1nc2c(s1)CCc1ccccc1-2
 : -17% | -26%
> CC(=O)Nc1ccc(NC(=O)C(C)OC(=O)c2cccs2)cc1 (stereo not drawn)
 : -7% | -7%
> O=C(CSc1nc2ccccc2n1Cc1ccc(Cl)cc1)N/N=C/c1ccc(C(=O)O)cc1
 : -4% | 7%
> Cn1c(Cn2nnc3ccccc32)nnc1SCC(=O)Nc1ccc2c(c1)OCO2
 : -9% | -1%
> COc1ccc(C2/C=C\CC(OCc3ccccc3)CC(=O)N2Cc2cccc(F)c2)cc1 (stereo not drawn)
 : -13% | ?
> Cc1ccc(N2C(=O)CS(=O)(=O)C23C(=O)N(Cc2cccc(F)c2)c2ccccc23)cc1Cl (stereo not drawn)
 : 1% | -7%
> CCO[C@@H]1OC(C(=O)NC2CC2)=C[C@H](c2coc3ccccc3c2=O)[C@H]1CCCO
 : i | -8%
> Cc1ccc(F)cc1C(=O)N1CCCC(C)(C(=O)NS(=O)(=O)C2CC2)C1 (stereo not drawn)
 : 6% | 6%
> Cc1ccc(C)c(OCCn2c(-c3ccc(Cl)cc3)nc3ccccc3c2=O)c1C
 : 0% | 9%
> CCOc1ccc(NC(=O)c2sc3ccccc3c2Cl)cc1
 : -3% | -1%
> Cc1c(NC(=O)c2cccs2)c(=O)n(-c2ccccc2)n1C
 : -5% | -2%
> Cc1ncc([N+](=O)[O-])n1CC(=O)NC1CCCC1
 : i | -6%
> CCCC(=O)c1c(NCCO)cc(C)oc1=O
 : -4% | -27%
> O=C(CSc1nc2ccccc2n1Cc1ccc(F)c(Cl)c1)N1CCN(c2ccc(F)cc2)CC1
 : -17% | -20%
> Cc1ccccc1NC(=O)CC1NCCNC1=O (stereo not drawn)
 : -8% | 3%
> CCCN(c1ccc(OCC)cc1)S(=O)(=O)c1ccc2c(c1)NC(=O)CO2
 : i[7.34 µM] | 0%[7.34 µM]
> C/C(=N\N=C1\NC(=O)C(CC(=O)O)S1)c1ccccn1 (stereo not drawn)
 : i[7.34 µM] | -13%[7.34 µM]
> O=C(C[C@H]1C[C@@H]2c3cc(NC(=O)Nc4ccccc4)ccc3O[C@@H]2[C@@H](CO)O1)NCC1CC1
 : -12% | -19%
> COc1ccc2[nH]c(=O)c(CN(C(=O)C3CCCO3)c3ccc(C)cc3)cc2c1 (stereo not drawn)
 : . | 3%
> Cc1ccc(C(=O)OCC(=O)Nc2ccc(N(C)C)cc2)cc1NC(=O)c1ccco1
 : i | -15%
> CC(C)(C)c1ccccc1NC(=S)NC1CCCCC1
 : 0% | -1%
> CCc1ccc(N2C(=O)C3C(C2=O)N2CCCN2C3c2ccccc2)cc1 (stereo not drawn)
 : i | -7%
> COc1ccc(C2CC(=O)Oc3cc(C)c(Cl)c(C)c32)cc1 (stereo not drawn)
 : -13% | 0%
